Compound activity: PubChem, several laboratories
EphB4 ephrin blk = blocks human EphB4 binding to ephrin-B2; inhibition, % at 7 µM; EphB4 LBD / TNYL-RAW-Alexa532 peptide, fluorescence polarization; hit rate 0.15% among 97,000; P54760;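 active means inhibition above the screen-wide mean inhibition plus 3 SD, cut at about 15% in these data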;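 further: 0% = DMSO wells and 100% = excess unlabeled TNYL-RAW peptide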
PTK2B oligo ant = antagonists of human Pyk2 oligomerization; AID 1347419; Q293 cells, Pyk2 FERM NanoBiT luminescence; stronger effect = lower value; Q14289; z-score (the deposit names both 25 µM and 10 µM); hit rate 0.83% among 99,000;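 active means Z-score of -3 or lower, scaled per plate to the spread of control and sample wells; inactive means z-score above -3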;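 further: negative z-score means lost luminescence so less FERM oligomerization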
LYP act = LYP (human) phosphatase activation. recombinant LYP, DiFMUP fluorescence; 0 = plate median, 100 = signal doubled. Q9Y2R2. AID 697. activation, % at 2 µM. hit rate 0.11% among 96,000;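 active means activation at 2 µM above a set limit, the mean plus 5 SD, cut at about 37% in these data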
Target sequence (Q9Y2R2 whole entry, looked up): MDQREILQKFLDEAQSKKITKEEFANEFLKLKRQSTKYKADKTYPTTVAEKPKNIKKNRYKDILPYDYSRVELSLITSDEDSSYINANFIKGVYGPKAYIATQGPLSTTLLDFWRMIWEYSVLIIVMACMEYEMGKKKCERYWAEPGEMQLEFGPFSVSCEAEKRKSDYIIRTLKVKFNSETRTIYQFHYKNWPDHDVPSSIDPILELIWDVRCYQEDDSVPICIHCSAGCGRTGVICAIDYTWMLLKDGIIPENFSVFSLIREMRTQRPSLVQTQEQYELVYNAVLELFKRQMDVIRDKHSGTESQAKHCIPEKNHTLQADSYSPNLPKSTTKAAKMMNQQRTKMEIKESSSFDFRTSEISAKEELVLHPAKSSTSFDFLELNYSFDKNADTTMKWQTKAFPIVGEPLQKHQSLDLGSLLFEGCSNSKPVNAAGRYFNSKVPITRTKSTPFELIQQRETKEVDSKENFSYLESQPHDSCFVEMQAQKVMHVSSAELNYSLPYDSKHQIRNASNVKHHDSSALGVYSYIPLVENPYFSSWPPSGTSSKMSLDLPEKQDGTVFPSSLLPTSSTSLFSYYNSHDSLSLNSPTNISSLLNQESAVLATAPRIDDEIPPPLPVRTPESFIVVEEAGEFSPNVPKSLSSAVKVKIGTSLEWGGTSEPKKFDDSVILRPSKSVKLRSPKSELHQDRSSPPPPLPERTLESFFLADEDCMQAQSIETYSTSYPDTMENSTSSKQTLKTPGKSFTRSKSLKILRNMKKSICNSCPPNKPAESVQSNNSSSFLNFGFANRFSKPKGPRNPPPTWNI
Plk1 PBD FP = inhibitors of human Plk1 polo box domain binding. P53350. Plk1 PBD phosphopeptide binding, fluorescence polarization. inhibition, %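 (tested at about 20 µM)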. hit rate 0.13% among 97,000. AID 693; in the data active means inhibition above about 34%, passing the limit was not always enough
HIV Rev-RRE inh = inhibitors of HIV-1 Rev-RRE RNA interaction; Rev peptide-RRE RNA binding, FRET; inhibition, % at 8 µM; hit rate 0.79% among 97,000;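 active means inhibition above the screen-wide mean plus 3 SD, cut at about 35% in these data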;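 further: 0% = median DMSO wells and 100% = median Neomycin B control wells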
Target sequence (P05866 whole entry, looked up): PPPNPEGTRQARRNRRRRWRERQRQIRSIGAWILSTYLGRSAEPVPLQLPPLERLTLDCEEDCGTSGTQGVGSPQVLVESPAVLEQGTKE
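Material: labelled RRE RNA duplex and labelled Rev peptide / Buffer or medium: HEPES pH 7.5 salt buffer with EDTA / Compound dosing: single point, 8 µM final nominal compound concentration / Benchmarks: DMSO low control, neomycin B high control / Timing: 5 min preincubation and 15 min binding, 25 °C / Technique: FRET fluorescence readout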
LYP inh 2 = LYP (human) phosphatase inhibition. Q9Y2R2. inhibition, % at 2 µM. hit rate 0.21% among 96,000. recombinant LYP catalytic domain, DiFMUP fluorescence;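 active means inhibition at 2 µM at or above a set limit, the screen mean plus 3 SD, cut at about 24% in these data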;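 further: 0% = DMSO with enzyme and 100% = enzyme fully blocked by orthovanadate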
cytoskel mod = modifiers of cytoskeleton assembly; hit rate 0.18% among 91,000; AID 836; inhibition, % at 2 µM; HUVEC TNFa F-actin phalloidin imaging, high content;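 active means inhibition above the batch mean plus 3 SD and confirmed as a hit by visual image inspection, cut at about 30% in these data, passing the limit was not always enough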; further: strong numbers were not always called active
PLK1 inh = PLK1 (human) kinase inhibition. inhibition, % at 10 µM. AID 619. P53350. hit rate 0.53% among 97,000. recombinant PLK1 kinase, TR-FRET peptide phosphorylation;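 active means inhibition of 50% or more in the single-concentration screen; inactive means inhibition below 50%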;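 further: 0% = DMSO max control and 100% = H-89 dihydrochloride min control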
Numbers without * were called inactive; x = not tested or not shown.

Preview:
EphB4 ephrin blk	HIV Rev-RRE inh	cytoskel mod	PTK2B oligo ant	Plk1 PBD FP	LYP act	LYP inh 2	PLK1 inh	molecule
2	9	-8	-0.11	0	-2	0	-10	CC(=O)c1cc2c(cc1NC(=O)c1cnc(C)cn1)OCO2
0	3	9	-0.36	-9	-8	7	-7	O=C(CSc1nc(O)cc(=O)[nH]1)C1CC1

Main list, previewed entries included:
EphB4 ephrin blk	HIV Rev-RRE inh	cytoskel mod	PTK2B oligo ant	Plk1 PBD FP	LYP act	LYP inh 2	PLK1 inh	molecule
2	9	-8	-0.11	0	-2	0	-10	CC(=O)c1cc2c(cc1NC(=O)c1cnc(C)cn1)OCO2
0	3	9	-0.36	-9	-8	7	-7	O=C(CSc1nc(O)cc(=O)[nH]1)C1CC1
-3	6	-8	0.11	25	-5	4	-7	O=C(O)CN1C(=O)SC(Nc2ccc(C(=O)O)cc2)C1=O (stereo unspecified)
3	6	43	-2.4	-9	11	-8	0	CCc1cccc2c(C(=O)COC(=O)c3nn(C)c(=O)c4ccccc34)c[nH]c12
-1	2	6	0.38	-37	-2	2	-7	CCn1c(Cc2ccccc2)nnc1SCC(=O)Nc1ccc(S(N)(=O)=O)cc1
6	0	-8	0.21	-34	-1	3	2	CCN(CC)S(=O)(=O)c1ccc(C(=O)N2CCCCC2)cc1
4	0	-35	-0.63	-14	-6	11	-14	O=C1OC(c2ccc(Br)cc2)=N/C1=C\N1CCCCC1
2	7	-4	-3.2*	-7	1	4	-10	COCCNC(=O)c1ccccc1NC(=O)c1ccc(Cl)c(S(=O)(=O)Nc2ccc(C)cc2C)c1
-10	16	-10	-0.27	6	2	-1	27	C=CCc1cc(C=O)cc(OC)c1OCc1ccc(Cl)cc1
1	6	-7	-0.03	-13	-9	11	-4	COCCNC(=S)NCCCNc1nc2cc3c(cc2cc1C#N)OCO3
-2	5	-7	x	-2	3	0	-9	COC(=O)c1c(CCl)noc1C(=O)NC(C)C
-2	3	12	x	-19	-1	1	6	CCOC(=O)CSc1ccc2nnc(-c3ccncc3)n2n1
-8	2	5	0.28	20	5	-5	-9	CC(=O)Cc1nsc(NC(=O)c2cccs2)n1
-7	-4	1	0.8	10	-10	9	-8	S=c1[nH]nc(COc2ccccc2)n1/N=C/c1ccc(Br)s1
-8	3	-4	-2.2	5	4	0	-6	COC(=O)C1=C(CSc2nc3ccccc3o2)NC(=O)NC1c1cc(C)ccc1C (stereo unspecified)
3	5	-4	1.1	-2	-4	3	-23	CC(=O)Nc1cccc(-c2nc3ccc(NC(C)=O)cc3[nH]2)c1
-3	5	-8	-0.8	19	4	-6	-9	O=C(Nc1ccccc1)C1=C(O)CC(c2ccoc2)CC1=Nc1ccccc1 (stereo unspecified)
-11	7	-8	1.4	-6	8	-10	-12	COc1ccc(-c2ccc(=O)[nH]n2)cc1
3	3	8	0.76	-4	2	-1	-4	Cc1cccc2cc(CN(Cc3ccco3)C(=O)c3ccncc3)c(=O)[nH]c12
2	2	-5	-0.12	-21	-4	0	-2	Cc1ccsc1C(=O)N/N=C/C=C/c1ccccc1[N+](=O)[O-]
6	8	-10	x	-12	-3	0	-3	Cn1c(SCc2nc(-c3ccc(Cl)cc3)no2)nnc1-c1ccco1
6	9	1	-0.71	-4	0	3	-13	CCCc1nc(SCC(=O)N2CCc3ccccc3C2)c2ccccc2n1
0	8	1	0.04	15	4	-2	-10	O=C(NC1(C(F)(F)F)C(=O)Nc2c1c(=O)[nH]c(=O)n2-c1ccc(F)cc1)c1cccnc1 (stereo unspecified)
-9	18	-12	0.24	13	0	-1	-12	CCOc1cc(C)c(Cl)cc1S(=O)(=O)NCc1ccc2c(c1)OCO2
5	-2	-8	-0.21	5	-8	6	-13	COCCn1c(SCc2nc3cc(OC)c(OC)cc3c(=O)[nH]2)nnc1-c1ccncc1
1	9	15	3.3	-12	2	-1	-8	Nc1c(-c2ccccc2)cnn1C1CCS(=O)(=O)C1 (stereo unspecified)
3	0	35	0.77	-11	2	2	1	O=C1OC(N2CCN(c3ccccn3)CC2)c2ccccc21 (stereo unspecified)
2	-5	-12	1.2	1	2	-3	7	COc1ccc(OCCOCCN2CCc3ccccc3C2)cc1
4	4	-15	0.86	-33	-8	14	2	Cc1cc(NC(=O)CSc2ccc(Cl)cc2)no1
-7	7	34	2.2	0	-11	8	-3	c1ccc2[nH]c(NC3=NCCC3)nc2c1
5	3	-4	0.77	4	1	0	-15	CC(C(=O)NCC1(c2ccccc2)CCCC1)N1CCCC1 (stereo unspecified)
9	2	2	0.75	5	7	-9	-8	O=C(CN1CCC(NC(=O)c2ccccc2)CC1)NCc1ccccc1F
7	9	-25	-1.6	-21	-8	7	-7	O=C(COc1ccccc1)N1CCN(c2nnc(-c3ccccc3)c3ccccc23)CC1
-1	-1	-4	-0.59	-3	-12	14	-8	CCc1nc(N2CCN(C(=O)c3ccco3)CC2)c2c3c(sc2n1)CCCC3
-1	1	12	0.29	-15	5	-1	-15	O=C(CCCCCn1c(=S)[nH]c2cc3c(cc2c1=O)OCO3)N1CCN(C(=O)c2ccco2)CC1
2	3	76*	0.05	-18	1	-4	-3	CCOC(=O)N1CCC(NC(=O)c2ccc(CNS(=O)(=O)c3ccc(F)cc3)cc2)CC1
-5	6	-6	-0.25	20	8	-9	-13	O=C(O)CN1C(=O)SC(Nc2ccc(Cl)cc2)C1=O (stereo unspecified)
-1	2	x	0.51	38	-4	6	-13	O=C(O)CCCCCCCCCC(=O)c1cccs1
-9	2	-1	x	-16	8	-5	-11	COCCNC(=O)c1onc(CCl)c1C(=O)OC
4	6	4	-0.65	9	-4	7	-8	CCCOc1ccc(-c2nc(C#N)c(N3CCC(C(N)=O)CC3)o2)cc1
5	3	14	-0.89	-2	9	-13	-7	Cc1cc(C)nc(N2CCCC(C(=O)Nc3nc4ccc(S(C)(=O)=O)cc4s3)C2)n1 (stereo unspecified)
0	2	-9	-0.42	2	-9	5	-6	CC(C)Cn1c(CN2C(=O)c3ccccc3C2=O)nc2ccccc2c1=O
-2	-3	13	-2.4	-8	-10	13	-6	CCN(CC)C(=O)CSc1nc2cc(OC)c(OC)cc2c(=O)n1Cc1ccc(Cl)cc1
1	6	7	-1.5	4	-3	3	-8	c1ccc(-c2oc3ncnc(NCCN4CCOCC4)c3c2-c2ccccc2)cc1
2	14	4	0.19	-17	-5	7	-6	Cn1c(SCc2nc(-c3ccc(Cl)cc3)no2)nnc1-c1ccccc1
-1	4	4	-0.89	-11	-3	1	7	O=C(NC1CCCCC1)C1CCN(c2nccs2)CC1
3	14	x	x	17	1	-1	0	CC1(C)CC(=O)C(C=Nc2cccc(/N=C/C3=C(O)CC(C)(C)CC3=O)n2)=C(O)C1
-6	-2	-3	-1	-9	-7	7	-1	Fc1ccc(/C=C2\CCCC3=C2Nc2ncnn2C3c2ccc(F)cc2)cc1 (stereo unspecified)
-6	6	5	1.1	7	3	-11	-14	O=C(c1ccccc1F)N1CCC(N2CCCCCC2)CC1
2	3	-9	-0.62	-17	5	-2	-12	CCCCc1c(O)nc2sc3cc(OC)ccc3n2c1=O
-3	6	7	0.86	-17	-8	10	-5	CC(C)c1ccc(OCC(=O)NC(=S)Nc2ccc3c4c(cccc24)CC3)cc1
-4	5	-61	1.7	-3	6	-6	4	COC(=O)c1ccc(Oc2cc(C)nc(-n3nc(C)cc3C)n2)cc1
2	9	0	0.59	14	-8	8	-5	Cc1c(C(=O)Nc2ccc(Cl)cc2)c2ccccn2c1C(=O)c1ccc([N+](=O)[O-])cc1
-5	5	-13	x	-31	-12	9	11	COC(=O)c1ccc2c(c1)N(Cc1nc(-c3cccc(C)c3)oc1C)C(=O)C1CCCN21 (stereo unspecified)
-6	2	0	-0.24	22	12	-10	-19	O=C(Nc1cccc(-c2cn3ccccc3n2)c1)C1CC1
3	2	0	0.01	-5	4	-4	-13	CCCNC(=O)CN(c1ccccc1)S(=O)(=O)c1ccc(OC)c(OC)c1
3	5	9	-0.53	12	-4	4	-11	CCOC(=O)CCCNC(=O)COC(=O)CCC(=O)c1ccc(F)cc1
1	5	9	1.5	-32	-3	5	-9	CCCCNC(=O)COC(=O)CCC(=O)c1ccc(F)cc1
5	12	0	-0.18	-22	3	-3	-11	CC(=O)NC1=NN(C(C)=O)C(c2cccs2)S1 (stereo unspecified)
4	11	-21	0.25	-11	-7	3	-11	c1coc(-c2nnc(-c3cccs3)o2)c1

Full records, quoted from the list.
Listed for O=C1OC(N2CCN(c3ccccn3)CC2)c2ccccc21 (stereo unspecified) = EphB4 ephrin blk: 3; HIV Rev-RRE inh: 0; cytoskel mod: 35; PTK2B oligo ant: 0.77; Plk1 PBD FP: -11; LYP act: 2; LYP inh 2: 2; PLK1 inh: 1
Listed for COCCNC(=S)NCCCNc1nc2cc3c(cc2cc1C#N)OCO3 = EphB4 ephrin blk: 1; HIV Rev-RRE inh: 6; cytoskel mod: -7; PTK2B oligo ant: -0.03; Plk1 PBD FP: -13; LYP act: -9; LYP inh 2: 11; PLK1 inh: -4

Continued.
EphB4 ephrin blk	HIV Rev-RRE inh	cytoskel mod	PTK2B oligo ant	Plk1 PBD FP	LYP act	LYP inh 2	PLK1 inh	molecule
-6	7	2	x	-1	-13	13	-4	CCCSc1nnc(Cn2c(=O)sc3ccccc32)n1-c1ccccc1
3	4	-4	-0.3	-7	0	-6	-4	O=C(CCN1C(=O)c2ccccc2S1(=O)=O)Nc1nc2c(s1)CCCC2
-3	5	2	-0.78	-6	0	-2	-6	CC(C)c1nc(N2CCN(C(=O)c3ccco3)CC2)c2c3c(sc2n1)CCCC3
2	5	7	1.8	-7	2	-3	-20	O=C(COc1ccccc1)Nc1ccc(Cl)c(-c2nc3ncccc3o2)c1
4	17	4	-1.5	-10	-1	3	-5	CCOC(=O)c1cc(C#N)c(N2CCCC2)nc1-c1ccccc1
-8	6	-8	x	-7	-4	3	-7	O=S(=O)(Nc1ccc2nc(-c3ccc(Br)o3)[nH]c2c1)c1ccccc1
-5	2	20	-0.04	17	2	2	0	Cc1nc2cc(NC(=O)NCCC3=CCCCC3)ccc2o1
3	7	13	0.1	8	-16	15	-8	Cc1ccc(-c2nn3c(C)nnc3s2)cc1NC(=O)c1ccc(-c2cccc(Cl)c2)o1
-1	8	-17	-0.87	15	2	-3	-14	COc1ccc(-c2noc(CSc3nc4ccccc4c(=O)n3-c3ccccc3)n2)cc1
-8	6	9	-0.32	-33	6	0	-11	Cc1cccc(C(=O)N/N=C/c2ccncc2)c1
-4	2	-47	-2.2	-17	0	1	-11	COCCCN1C(=O)c2[nH]nc(-c3ccccc3O)c2C1c1ccc(Cl)cc1 (stereo unspecified)
-2	-2	11	-0.14	-8	4	-4	-10	CCOC(=O)C1CCN(C(=O)CC(NS(=O)(=O)c2ccc(OC)cc2)C(C)C)CC1 (stereo unspecified)
-4	1	-26	-0.86	-13	0	4	29	Nc1nc(N)nc(-c2ccccc2O)n1
-5	2	7	-0.06	-5	1	3	0	CCOC(=O)c1c(-c2ccccc2)nnn1-c1nc(OC)nc(N2CCOCC2)n1
4	30	0	0.61	-20	-12	11	-4	COc1ccccc1NC(=O)c1sc2nc(-c3ccco3)ccc2c1N
2	4	1	1.5	-8	-6	6	-10	Cc1ccc(-c2nn3c(C)nnc3s2)cc1NC(=O)c1cccnc1
1	0	0	-0.16	35	-4	1	-13	CCc1ccc(NC(=O)CN2C(=O)CSC2=O)cc1
6	2	37	0.51	10	-1	0	-4	CCOC(=O)CSc1nnc(-c2ccco2)n1-c1ccc(C)cc1
-9	3	-4	-0.58	8	-1	2	-4	O=C(Nc1nnc(CCN2CCOCC2)s1)c1ccccc1
-3	2	-7	-0.35	-6	-1	2	-11	CCCCCn1ccc(=O)c2c(C(F)(F)F)nccc21
8	-15	10	0	16	-7	6	-2	O=C(COC(=O)CCC(=O)c1cccs1)NCc1ccco1

Only part of the results is shown. The share of hits here may be higher or lower than overall.
